ALR H2O2 inh: blocks human ALR sulfhydryl oxidase activity; purified ALR, DTT oxidation, H2O2 HRP-luminol luminescence; inhibition, % (concentration not given with the values); 290,000 tested, 3.8% active; AID 485317;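 active = mean and each replicate at 75% or more; inconclusive = only one of the two met; inactive = neither met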;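 note: stock transfer was 7.5 nL into about 7.5 µL; 0% = neutral wells and 100% = wells with inactivated enzyme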
Calb FLC: affects C. albicans growth with fluconazole | C. albicans CaCi-2 (fluconazole-resistant clinical isolate) + fluconazole, Alamar Blue growth, 48 h | growth inhibition, % (test concentration not listed) | 300,000 tested, 0.57% active | AID 1979;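 active = most replicates above 75%; inconclusive = exactly half above 75%; inactive = most below 75%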;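 note: all wells also contain fluconazole at 8 µg/ml as a sub-toxic cotreatment; 0% = median of DMSO wells and 100% = median of geldanamycin control wells; wells of about 8 µL received 7.5 nL stock; the first replicate is given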
Beta2AR agonist: activates human beta-2 adrenergic receptor causing internalization; P07550; response, % (no concentration beside the values); Am2.2-beta2AR cells, FAP receptor internalization, flow cytometry; reference of the scale not given here; 340,000 tested, 0.43% active;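 active = response above a set limit, near 3 SD of response in nonfluorescent compounds, cut at about 42% in these data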;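 note: stock transfer was 100 nL into about 11 µL; a reference agonist was the positive control; negative values mostly stem from fluorescent compounds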
LANA-H2A inh: blocks KSHV LANA binding to histone H2A/H2B. Q9QR71. cell-free LANA-H2A/H2B peptide, fluorescence polarization. inhibition, % (no concentration beside the values). 320,000 tested, 0.6% active; in the data active = inhibition mostly above about 10%, no sharp cut-off; inactive = mostly below about 6.7%;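 note: stock transfer was 7.5 nL into about 10 µL; 0% = median of vehicle wells and 100% = median of positive control wells; one replicate is shown; the record names a cut of 25% in any replicate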
Target sequence (Q9QR71 whole entry, looked up): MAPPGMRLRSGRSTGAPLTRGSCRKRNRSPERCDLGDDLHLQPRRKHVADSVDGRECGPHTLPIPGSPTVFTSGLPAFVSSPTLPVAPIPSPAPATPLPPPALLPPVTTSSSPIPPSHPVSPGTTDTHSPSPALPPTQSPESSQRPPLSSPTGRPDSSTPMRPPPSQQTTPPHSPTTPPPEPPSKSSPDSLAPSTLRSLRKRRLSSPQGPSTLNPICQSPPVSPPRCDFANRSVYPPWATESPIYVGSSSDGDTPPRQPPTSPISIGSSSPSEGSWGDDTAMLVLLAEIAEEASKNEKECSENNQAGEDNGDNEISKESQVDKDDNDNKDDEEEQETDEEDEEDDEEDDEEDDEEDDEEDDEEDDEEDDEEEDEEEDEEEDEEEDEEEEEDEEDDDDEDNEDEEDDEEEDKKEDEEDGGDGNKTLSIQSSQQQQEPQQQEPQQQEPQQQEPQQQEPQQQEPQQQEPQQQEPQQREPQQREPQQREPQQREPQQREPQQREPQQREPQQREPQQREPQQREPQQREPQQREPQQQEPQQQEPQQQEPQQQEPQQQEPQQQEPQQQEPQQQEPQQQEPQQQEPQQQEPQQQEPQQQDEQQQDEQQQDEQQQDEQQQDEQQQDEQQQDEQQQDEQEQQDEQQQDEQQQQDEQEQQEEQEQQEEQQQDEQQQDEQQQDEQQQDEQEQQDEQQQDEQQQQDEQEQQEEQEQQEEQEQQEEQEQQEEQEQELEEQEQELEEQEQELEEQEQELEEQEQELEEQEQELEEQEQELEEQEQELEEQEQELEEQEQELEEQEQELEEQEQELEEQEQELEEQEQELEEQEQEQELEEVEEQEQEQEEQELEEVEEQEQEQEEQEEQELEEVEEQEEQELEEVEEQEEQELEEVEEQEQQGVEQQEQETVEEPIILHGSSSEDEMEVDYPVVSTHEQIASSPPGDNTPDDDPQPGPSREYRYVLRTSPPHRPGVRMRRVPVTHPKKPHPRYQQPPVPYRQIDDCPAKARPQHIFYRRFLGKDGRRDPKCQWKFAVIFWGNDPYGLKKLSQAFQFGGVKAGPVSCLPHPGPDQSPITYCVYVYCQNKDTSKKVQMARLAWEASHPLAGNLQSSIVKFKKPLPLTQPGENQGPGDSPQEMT
T cruzi inh: T. cruzi replication inhibition. 300,000 tested, 1.4% active. inhibition, % (concentration not given with the values). T. cruzi beta-gal in NIH3T3, luminescence, 90 h;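 active = mean inhibition across valid replicates above about 55%, limit read from the data; inconclusive = mean below that limit but half or more replicates reach it; inactive = mean below it, under half of replicates reach it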;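 note: signal also drops with host cell toxicity which is not excluded here; 0% = plate median of DMSO wells and 100% = zero luminescence signal; higher percent means less beta-gal luminescence so fewer parasites; stock transfer was 50 nL into about 50 µL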
Beta apoptosis: blocks beta cell apoptosis; 300,000 tested, 0.8% active; protection from apoptosis, % (concentration not given with the values); INS-1E cytokine-induced death, ATP luminescence, 48 h; percent of positive-control rescue, neutral wells zero;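 active = all replicates at 75% or more, or half of them and the mean; inconclusive = half reach 75% but not the mean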;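 note: 0% = cytokine-treated negative control wells and 100% = positive control rescue; higher means more ATP so stronger rescue from cytokine killing; wells of about 40 µL received 100 nL stock; the first replicate is given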
A1 inh: inhibitors of the anti-apoptotic protein A1, read as caspase activation. MEF A1-2A-BIM cells, Caspase-Glo 3/7 luminescence, 3 h; percent of clofoctol response, vehicle zero. caspase activation, % (no concentration beside the values). 330,000 tested, 0.066% active. AID 2462;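 active = over half of replicate activation scores above 10%, or exactly half above 10 with the replicate mean above 10; inconclusive = replicate mean below 10 yet half the replicates above 10; inactive = over half of replicates below 10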;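 note: wells of about 30 µL received 50 nL stock; many hits fall short of the cut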
Ecoli rRNA inh: inhibits bacterial ribosomal RNA function over humanized ribosomes; GFP signal change (wild-type ribosome), % (no concentration beside the values); 350,000 tested, 1.6% active; E. coli WT GFP vs humanized-ribosome RFP mutants, fluorescence, 24 h; hits give low values; DMSO median 0, no signal -100;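 active = significant combined selectivity score with lowered wild-type GFP, culture density cut under 30%, mutant RFP and density less affected; inactive = any of these conditions unmet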; note: one replicate is shown; some compounds called inactive have numbers as strong as hits
Ecoli rRNA inh OD600: second read-out of Ecoli rRNA inh, no call of its own (marks repeat the call); OD600 change, %; measured here: OD600 growth;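 optical density of the mix in the first replicate; 0 = DMSO median and -100 = no signal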
Ecoli rRNA inh RFP: second read-out of Ecoli rRNA inh, no call of its own (marks repeat the call); RFP signal change, %; measured here: RFP humanized mutant strains;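 first replicate; 0 = DMSO median and -100 = no signal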
Numbers without * were called inactive; i = inactive; ? = inconclusive; . = not tested or not shown.

SMILES	ALR H2O2 inh	Calb FLC	Beta2AR agonist	LANA-H2A inh	T cruzi inh	Beta apoptosis	A1 inh	Ecoli rRNA inh	Ecoli rRNA inh OD600	Ecoli rRNA inh RFP
COc1ccc(Cc2nnc(N/N=C/c3ccccc3O)[nH]c2=O)cc1OC	.	3	7	0.7	24	85*	-0.4	-20	-14	-4.8
Cc1cc(NC(=O)c2ccc(S(=O)(=O)N(C)C)cc2)n(-c2ccccn2)n1	6	19	2	5.2	11	6	0.0	.	.	.
O=C(Nc1ccccc1F)c1cc(Cl)sc1Cl	0	-4	-14	1.4	6	-3	-2.4	-8	0	-2.4
CNC(=S)N(C1=NCC(c2ccc([N+](=O)[O-])cc2)S1)c1ccccc1 (stereo not drawn)	1	-2	-3	11	19	-2	0.0	-2	6	-1.4
C/C(=N\NC(=O)c1ccc(Cn2cc(Br)cn2)o1)c1cccc(NC(=O)C(C)C)c1	-4	13	3	-5.3	1	-2	-0.1	.	.	.
COc1ccc(S(=O)(=O)N2CCCC2)cc1OC	-6	-6	-8	0.8	-4	-4	0.3	6	11	-1.2
Cc1cccc(NC(=O)CCNS(=O)(=O)c2cc(Br)cnc2N)c1C	5	-11	0	-2.0	-4	-3	-1.2	-15	-28	-7.0
CCN(CC(=O)NCc1cccs1)C(=O)c1ccc(NS(=O)(=O)c2ccc(F)cc2)cc1	1	0	2	-4.2	-1	0	1.2	0	-4	0.0
COC(=O)Nc1ccc2c(c1)ncn2C1CCCCC1	-5	0	7	1.8	18	-4	0.8	.	.	.
O=C(Nc1ccc2[nH]c(=O)[nH]c2c1)C(F)(F)F	-27	-5	9	-0.7	-1	2	1.4	6	1	-2.2
CCN(c1ccccc1)S(=O)(=O)c1ccc(N2CCN(c3ccccc3O)CC2)nc1	-1	.	3	0.3	.	15	0.3	.	.	.
Cn1nc(-c2ccc(Cl)cc2)c2cc(C(=O)N3CCN(C(=O)c4ccco4)CC3)sc21	?	-3	-14	0.4	1	.	0.5	-18	-26	-3.9
CCOc1cc(NC(=O)c2ccco2)c(OCC)cc1NC(=O)CCC(=O)NCc1cccnc1	-30	.	-16	3.2	.	11	0.1	.	.	.
CCOC(=O)C(C(=O)OCC)C(CC(=O)C1CC1)c1ccccc1 (stereo not drawn)	-2	-8	-3	-1.3	-3	1	1.1	.	.	.
CC(=O)[C@]1(O)Cc2c(O)c3c(c(O)c2[C@@H](O[C@H]2C[C@H](N)[C@H](O)[C@H](C)O2)C1)C(=O)c1ccccc1C3=O	11	78*	.	49*	55*	15	?	.	.	.
Cc1cccc(NC(=O)CSc2nnc(CCC(=O)Nc3ccc(C)c(Cl)c3)n2C)c1	1	7	1	11	7	-1	-0.7	.	.	.
Cc1cccc(OCCNC(=O)c2ccc(Oc3ccc(C(F)(F)F)cc3[N+](=O)[O-])cc2)c1	-3	-3	-7	0.8	39	.	0.1	.	.	.
C/C(=N\NC=O)c1ccncc1	1	?	-5	-4.5	-11	-3	-0.6	19	9	0.0
CCN1C(=O)/C(=C/N(C)c2ccccc2)OC1=S	.	10	-10	-1.8	-8	4	-4.0	1	-5	-1.9
CC(NC(=O)Nc1ccc(Cl)c(Cl)c1)C(c1ccccc1)N1CCOCC1 (stereo not drawn)	4	-3	14	2.3	25	12	0.3	-57	-67	-20
CCOC(=O)N/C(N)=N/c1nc2ccccc2s1	-4	-9	0	9.8	9	0	-3.1	.	.	.
O=C1CCC(CCC(=O)N2CCCC(C(=O)c3cccc(C(F)(F)F)c3)C2)=NN1 (stereo not drawn)	.	14	-6	-2.1	6	-3	-0.7	.	.	.
O=C(C[n+]1ccc(-c2nnc3n2CCC3)cc1)c1ccc(Cl)cc1	-9	12	-5	1.4	-11	-2	2.0	.	.	.
COC(=O)c1cc(OC)nc(OC)c1	.	-1	3	25*	-14	-4	0.3	3	3	-0.4

Laid out differently: entries from further up
| smiles | ALR H2O2 inh | Calb FLC | Beta2AR agonist | LANA-H2A inh | T cruzi inh | Beta apoptosis | A1 inh | Ecoli rRNA inh | Ecoli rRNA inh OD600 | Ecoli rRNA inh RFP |
| --- | --- | --- | --- | --- | --- | --- | --- | --- | --- | --- |
| O=C1CCC(CCC(=O)N2CCCC(C(=O)c3cccc(C(F)(F)F)c3)C2)=NN1 (stereo not drawn) | . | 14 | -6 | -2.1 | 6 | -3 | -0.7 | . | . | . |
| O=C(C[n+]1ccc(-c2nnc3n2CCC3)cc1)c1ccc(Cl)cc1 | -9 | 12 | -5 | 1.4 | -11 | -2 | 2.0 | . | . | . |
| COC(=O)c1cc(OC)nc(OC)c1 | . | -1 | 3 | 25* | -14 | -4 | 0.3 | 3 | 3 | -0.4 |

The list goes on.
SMILES	ALR H2O2 inh	Calb FLC	Beta2AR agonist	LANA-H2A inh	T cruzi inh	Beta apoptosis	A1 inh	Ecoli rRNA inh	Ecoli rRNA inh OD600	Ecoli rRNA inh RFP
Cc1nc2cc(NS(=O)(=O)c3c(C)c(C)cc(C)c3C)ccc2s1	-5	25	-8	4.1	13	19	-0.3	.	.	.
Cc1cc(C(=O)NCc2ccccc2)no1	-2	-7	-6	1.6	-5	-3	-0.6	13	11	-7.6
O=C(O)c1cc(-c2ccccc2)nc2nc(N3CCCCC3)sc12	80*	6	.	-0.8	-4	8	0.3	-1	-3	8.3
O=C(O)c1cc([N+](=O)[O-])cc2c1C=Cc1ccccc1O2	-7	-5	9	0.4	-5	-5	1.0	-5	1	1.1
O=C(CSc1ccc2nnc(-c3ccccn3)n2n1)Nc1ccc(F)cc1	3	-12	0	4.8	-3	-5	0.5	8	7	0.2
Cc1ccc(C(=O)N/C(=C/C=C/c2ccccc2)C(=O)NCc2ccco2)cc1	0	8	12	2.7	13	2	0.0	.	.	.
COc1ccc(S(=O)(=O)Nc2ccccc2)cc1OC	-12	4	-11	1.1	-5	-2	0.4	.	.	.
O=S(=O)(NC1CCSc2ccccc21)c1ccc(Cl)nc1 (stereo not drawn)	-24	-1	8	0.5	11	1	-0.1	2	-2	0.1
Cc1cc(C)c2cc(CN(Cc3nnnn3C3CCCCC3)CC3CCCO3)c(=O)[nH]c2c1 (stereo not drawn)	-1	16	-2	i	-3	-1	0.7	-14	-8	0.5
Cn1cnnc1SCCNS(=O)(=O)c1ccccc1	1	-5	3	1.5	-15	2	0.3	.	.	.
Cc1cc(C)cc(NC(=O)N2CCCN(c3c(Cl)cncc3Cl)CC2)c1	1	10	9	5.0	2	1	-0.6	22	13	2.8
COc1cc(OC)cc(-c2nc(-c3ccccc3OC)no2)c1	.	1	2	-5.6	10	-8	0.0	.	.	.
O=C(Nc1nnc(-c2ccc3c(c2)CCCC3)o1)c1c(F)cccc1F	95*	?	8	-3.5	-3	-2	0.4	-37	-59	-9.2
O=c1[nH]c(SCc2ccccc2)nc2[nH]ncc12	-1	-4	4	2.8	-15	3	-0.6	2	1	-1.3
COn1c(=S)[nH]c2ccccc2c1=O	-3	.	-9	-1.5	.	-1	0.6	.	.	.
O=C(Nc1ccccc1C(=O)N1CCCCC1)c1cccc(S(=O)(=O)N2CCOCC2)c1	-2	0	-1	-9.9	-11	-1	0.6	.	.	.
CN(CCOc1ccc(Cl)cc1)CC(=O)Nc1ccc(OC(F)F)cc1	-5	-9	-5	-2.5	10	-3	0.6	-34	-63	-8.2
Cc1nc2scc(-c3cccs3)c2c(=O)[nH]1	-2	?	-17	1.2	-23	-7	0.5	.	.	.
Cc1cc(C(=O)N(NC(=O)C(C)C)c2ccccc2)cs1	-1	-6	-1	1.7	-11	-3	-1.7	14	6	2.1
COc1ccc(-n2ccnc2SCC(=O)NCc2ccc3c(c2)OCO3)cc1	-14	-20	-3	4.3	10	-4	-0.9	.	.	.
CCOC(=O)c1ccc(NC(=O)CCNc2c(N3CCCC3)c(=O)c2=O)cc1	5	7	5	-2.6	-5	6	0.3	.	.	.
CCOc1ccc2nc(COC(=O)c3cccc([N+](=O)[O-])c3)c(C(C)=O)[n+]([O-])c2c1	-23	-3	-3	2.9	-15	-4	1.6	10	-1	0.3
O=C1c2nccnc2C(=O)N1c1ccc(C(F)(F)F)cc1	1	10	4	0.4	0	3	0.9	10	13	-8.4
Cn1c(=O)c2c(ncn2CC(=O)N2CCCc3ccccc32)n(C)c1=O	1	7	2	-4.6	-12	-4	0.6	.	.	.
CCOc1ccc(S(=O)(=O)N2CCC(C(=O)NCCc3ccc(OC)c(OC)c3)CC2)cc1	-1	0	-10	-1.1	-18	1	-0.7	2	-8	4.3
COc1ccccc1-c1c(C)nn2c(N3CCC(C)CC3)cc(C)nc12	.	5	26	0.5	31	4	2.6	-24	-17	13
CCOC(=O)N1CCN(c2c(NCc3ccccn3)c(=O)c2=O)CC1	-5	-2	8	-2.8	-18	-1	0.9	6	10	0.7
CSCCC(NC(=O)c1ccc(Cl)cc1Cl)C(=O)NNC(=O)c1ccncc1 (stereo not drawn)	.	.	.	0.9	.	-3	0.4	5	8	2.6
COc1ccccc1C1N(c2cc(Cl)ccc2OC)C(=O)C2CCCN21 (stereo not drawn)	3	-9	-2	-0.2	2	-3	1.0	7	8	1.4
COc1ccc(Cl)c2sc(N(Cc3cccnc3)C(C)=O)nc12	3	-29	2	6.2	-2	2	0.2	8	5	-3.3
CNc1[nH]c(=O)[nH]c(=O)c1N=Nc1cc(Cl)ccc1Cl	3	-7	5	-5.5	-12	1	-2.1	7	12	0.7
N#C/C(=C\c1ccc(OCc2cccc(C(=O)O)c2)cc1)C(=O)NCc1ccco1	35	2	11	-0.5	-7	-6	-7.0	-3	-2	14
CCOC(=O)c1cnc2c(c(C)nn2C)c1Oc1cc(Cl)cc(Cl)c1	-3	8	-6	-2.4	11	-1	-0.6	5	4	3.2
Cc1cccc(CSc2ncccc2C(=O)O)c1	5	6	3	2.8	3	-8	-0.5	-10	-5	-2.2
Cc1ccc([N+](=O)[O-])cc1S(=O)(=O)N1CCCCC1C(=O)O (stereo not drawn)	-7	-5	10	1.4	-26	-1	1.5	6	15	-2.6
CC(=O)N[C@@H](C)c1nc2ccccc2n1CCNC(=O)[C@H]1CCCN1c1nc(CN2CCCCC2)cs1	-2	-11	.	-4.0	2	-4	0.8	.	.	.
COc1ccc(C2CC(=O)N3CN(Cc4ccco4)CSC3=C2C#N)cc1 (stereo not drawn)	-12	17	0	8.4	7	1	.	.	.	.
C=CCSc1nc2c(c(=O)[nH]c(=O)n2C)n1C(C)C	-4	31	-9	1.0	-17	.	-1.1	.	.	.
CCOC(=O)Cn1nc(-c2ccc(F)cc2)cc(Cc2ccccc2)c1=O	-4	18	2	2.7	18	-3	1.5	-22	-14	-18
COc1ccc2nc3c(cc2c1)c(NC(=O)CC(C)C)nn3CC(C)C	.	18	11	4.0	11	21	-0.9	8	10	0.4
O=S(=O)(c1cnc(Cl)c(Cl)c1)N1CCN(c2ncccn2)CC1	-14	-5	6	2.1	1	-2	1.3	14	8	1.2
COc1ccc(S(=O)(=O)NCC(=O)O)cc1C(=O)NC1CCCCC1	-4	-3	0	-1.3	-17	-10	0.3	.	.	.

A portion of the library (hit frequency here may not be typical).
